From PubChem BioAssay
RE007 growth inh = less growth of the S. pombe RE007 Vpr strain; S. pombe RE007 Vpr strain, BacTiter-Glo ATP luminescence, 24 h; control for the full effect not named in the record; Potency, µM (highest dose often 92.2 µM), without a hit: at the highest dose activity change, negative = less growth; 0.21% of 360,000 active; active = well fitted falling curve with a large enough effect; inconclusive = small, poorly fitted or top-dose-only effect; inactive = no such curve, though single readings can be large or run the other way;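 further: on the % scale 0 is the no-effect control and ±100 the full control effect; nearly all actives have a fitted effect of over 50% in size; the assay follows cell death caused by Vpr and the record does not say whether a fall means rescue or toxicity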
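Fission yeast strain RE007, carrying one chromosomally integrated HIV-1 vpr copy, was seeded at OD 0.01 in PMG+AL medium with 23 nL pinned compound. After 24 h at 30 °C and 99% humidity, viability was read by BacTiter-Glo luminescence.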
StopGo reporter = FMDV 2A StopGo reporter, luciferase signal | human cells with a luciferase reporter of 2A StopGo recoding; control for the full effect not named in the record | Potency, µM (titrated, usually from 57.9 µM), without a hit: at the top dose signal change, negative = less light | 1.2% of 410,000 active | AID 1159524; active = well fitted falling curve with a large enough effect; inconclusive = small, poorly fitted or top-dose-only effect; inactive = no such curve, though single readings can be large or run the other way; tested in HEK293T cells; further: on the % scale 0 is the no-effect control and ±100 the full control effect; nearly all actives have a fitted effect of over 45% in size; luciferase light after 4 h
Cruzain inh noDet = inhibitors of Trypanosoma cruzi cruzain without detergent | P25779 | Potency, µM, without a hit: max response, negative = inhibition, usual class: inhibitors | purified cruzain, Z-FR-AMC fluorescence, no detergent | AID 1476 | 2.3% of 200,000 active; active means well fitted curve in the direction sought with a large enough effect; inconclusive means small, poorly fitted or top-dose-only effect, or another doubt; inactive means no such curve, though single readings can be large; an effect the other way counts as inactive or inconclusive;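 further: plate controls were enzyme without inhibitor for no effect and buffer without enzyme for full effect; nearly all actives have a fitted effect of over 40% in size; top concentration of the series not given in the record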
Target sequence (P25779 123-467 limits assumed): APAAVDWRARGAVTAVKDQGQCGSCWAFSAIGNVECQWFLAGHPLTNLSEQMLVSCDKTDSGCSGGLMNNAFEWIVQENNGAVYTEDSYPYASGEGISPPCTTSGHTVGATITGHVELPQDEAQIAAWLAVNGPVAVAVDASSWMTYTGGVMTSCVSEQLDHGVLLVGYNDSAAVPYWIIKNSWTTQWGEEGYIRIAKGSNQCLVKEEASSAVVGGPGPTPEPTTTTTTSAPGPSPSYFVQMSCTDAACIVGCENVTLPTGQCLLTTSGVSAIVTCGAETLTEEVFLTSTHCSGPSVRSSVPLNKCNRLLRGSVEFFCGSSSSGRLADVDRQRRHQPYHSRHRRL
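Purified cruzain at 1.5 nM, pre-incubated 15 min with compound at room temperature in 100 mM sodium acetate pH 5.5, 5 mM DTT, 0.00005% Triton X-100. Reaction started with 2 uM Z-FR-AMC; AMC fluorescence increase over 60 s gives rate.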
MARV entry inh = Marburg virus entry inhibition; Potency, µM (highest dose often 37.8 µM), without a hit: at the top dose activity change, negative = inhibition, most hits filed as inhibitors; Marburg virus pseudotyped entry inhibition, cell reporter; control for the full effect not named in the record; about a third of the inactives were read at about 46 µM; 1.8% of 300,000 active; AID 540276; active = well fitted inhibition curve with a large enough effect; inconclusive = small, poorly fitted or top-dose-only effect, or effect the other way; inactive = flat fitted curve, though single readings scatter; tested in HEK293 cells; about a fifth of its hits are not listed in these tables; further: on the % scale 0 is the no-effect control and ±100 the full control effect; luciferase read-out
Cruzain Triton = cruzain (T. cruzi) inhibition with detergent; 0.43% of 200,000 active; Potency, µM, without a hit: max response, negative = inhibition, actives largely listed as inhibitors; purified cruzain, Z-FR-AMC fluorescence, 0.01% Triton; P25779; AID 1478; active means well fitted curve in the direction sought with a large enough effect; inconclusive means small, poorly fitted or top-dose-only effect, or another doubt; inactive means no such curve, though single readings can be large; an effect the other way counts as inactive or inconclusive;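 further: plate controls were neutral wells for no effect and buffer without enzyme for full effect; nearly all actives have a fitted effect of over 40% in size; top concentration of the series not given in the record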
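15 min RT preincubation of 1.5 nM cruzain with compound, then 2 uM Z-FR-AMC added; kinetic AMC fluorescence, 60 s delta. Triton X-100 0.01%, pH 5.5.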
SARS PLP yeast = blocks SARS-CoV papain-like protease in a yeast assay; S. cerevisiae expressing SARS-CoV PLpro, growth rescue; control for the full effect not named in the record; Potency, µM (titrated, usually from 32.9 µM), without a hit: at the highest dose activity, positive = growth rescue; 0.19% of 330,000 active; further: 0% is about no effect; nearly all actives have a fitted effect of over 55% in size; growth read by luminescence after 48 h
NS1 inh = inhibitors of influenza NS1 protein function. S. cerevisiae slowed by influenza A NS1, growth recovery by OD600. Potency, µM (series often up to 46.1 µM), for the others: at the highest dose activity, positive = more growth. 0.4% of 270,000 active; further: actives are rising curves; nearly all actives have a fitted effect of over 50% in size
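Recovery from NS1-induced slow growth read by OD600 in budding yeast switched to galactose assay medium (pH 6.0, -URA) at 1:100 dilution. Compound 23 nl per well; the matching strain lacking NS1 serves as control.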
LASV entry inh = blocks Lassa virus binding to or entry into cells. AID 540256. Lassa virus pseudotype entry inhibition, cell reporter; control for the full effect not named in the record. 1.2% of 300,000 active. Potency, µM (highest dose often 37.9 µM), for inactives: at the top dose activity change, negative = inhibition, actives largely listed as inhibitors; active means well fitted inhibition curve with a large enough effect; inconclusive means small, poorly fitted or top-dose-only effect, or effect the other way; inactive means flat fitted curve, though single readings scatter; tested in HEK293 cells; further: on the % scale 0 is the no-effect control and ±100 the full control effect; nearly all actives have a fitted effect of over 50% in size; luciferase read-out
Numbers without * were called inactive; ? = inconclusive; . = no result given; [ ] = remark or other dose. Unless noted, the call rests on the fitted dose curve; in most records, active means well fitted rising curve with a large enough effect; inconclusive means small, poorly fitted or top-dose-only effect; inactive means no such curve, though single readings can be large or run the other way. Potency means the concentration at half of the fitted maximal effect. The order is random. Share with any hit: about 4.7%.

Second line of a record – RE007 growth inh | StopGo reporter | Cruzain inh noDet | MARV entry inh | Cruzain Triton | SARS PLP yeast | NS1 inh | LASV entry inh
CC1CCN(S(=O)(=O)c2ccc3ncn(CC(=O)N4CCN(C)CC4)c(=O)c3c2)CC1
  4% | -12% | . | 6%[46.1 µM] | . | 0% | . | -1%
COc1cccc(CNC(=O)CN2C(=O)CSc3ccc(S(=O)(=O)N(C)C)cc32)c1
  . | -17% | -3% | . | 0.9% | . | . | ?
COC(=O)C1CCN(C(=O)COC(=O)c2ccc(=O)n(Cc3ccccc3)n2)CC1
  4% | -11% | . | 17% | . | 3% | . | -19%
Cc1cc(N)c2ccccc2[n+]1CCCCCCCCCCCCCC[n+]1c(C)cc(N)c2ccccc21
  . | . | 20µM* | 8.9µM* | 13µM* | . | -36% | .
Cc1cccc(NC(=O)C2CC(O)CN2C(=O)Oc2ccccc2)c1 (stereo unspecified)
  -6% | 0% | . | 18%[46.1 µM] | . | 1% | 2% | 11%
O=c1ccc(NS(=O)(=O)c2ccccc2)cn1Cc1ccc(Cl)c(Cl)c1
  -12% | ? | -18% | -14% | -1.3% | 5% | 6% | 14%
Cc1ccc(-n2nc(C(=O)NCCc3cccc(C)c3)c3c4ccccc4n(C)c3c2=O)cc1
  . | -30% | 1% | -13%[46.1 µM] | -1.6% | . | . | -9%[46.1 µM]
CC1Sc2ccc(S(=O)(=O)CCC(=O)N(C)Cc3ccco3)cc2NC1=O (stereo unspecified)
  -3% | -23% | . | . | . | 3% | -2% | .
Cc1ccc(C(=O)NN2CC(O)=C(c3nc(-c4cccc([N+](=O)[O-])c4)cs3)C2=N)cc1
  7% | -20% | . | -5%[46.1 µM] | . | 0% | 11% | 7%
C/C(N)=C(/C#N)C(=O)COC(=O)c1cccc(O)c1
  -1% | 28% | . | ? | . | 0% | . | -6%[46.1 µM]
Cc1nc2ccccc2c(=O)n1-c1ccc(C(=O)O)cc1
  -5% | 37%[activator] | . | . | . | 1% | -60% | .
S=C(Nc1ccccc1)N(CCN1CCOCC1)Cc1cccc(Cl)c1
  -11% | 0% | . | . | . | 1% | -5% | .
COc1cccc(NC(=O)CN(C)C(=O)c2ccc(S(=O)(=O)Nc3ccccc3F)cc2)c1
  -18% | 0% | . | ? | . | -1% | . | -16%
CCOc1cc(C2C3=C(CC(C)(C)CC3=O)N(CCCOC)C3=C2C(=O)CC(C)(C)C3)ccc1O
  -14% | -5% | . | . | . | 4% | -2% | .
CCCC(=O)NC(=S)Nc1ccccc1OC
  3% | 12% | 1% | 0% | 0.5% | . | -3% | 13%
CCCNS(=O)(=O)c1ccc(N2CCCC2=O)c([N+](=O)[O-])c1
  0% | 8% | 11% | -2% | 5.7% | 16% | 11% | -17%
Nc1nc(-c2cc3ccccc3o2)cs1
  -30% | 38%[activator] | . | -10% | . | -7% | -43% | ?
COc1cccc(C(=O)OC2CCN(C)CC2)c1
  7% | 2% | . | 18%[46.1 µM] | . | 0% | 3% | -15%[46.1 µM]
COC(=O)C1=NN[C@H](C(=O)OC)[C@H]1c1ccccc1
  3% | -26% | 3% | 3% | -0.9% | 14% | 7% | -9%
CCOc1cc(NC(=O)C2CC2)c(OCC)cc1NC(=O)CCn1nnc2ccccc21
  -4% | -20% | 8% | 2% | 1.1% | 3% | -1% | 8%
S=c1[nH]nc(COc2ccc(Cl)cc2)n1-c1ccc(Cl)cc1
  11% | -13% | . | ? | . | -12% | 13% | 0%
O=C(c1ccc(C(F)(F)F)cc1)N1CCN(c2ccc(N3CCOCC3)nn2)CC1
  0% | 0% | . | ? | . | 2% | . | -17%
O=C(C1CCC(Cn2c(=S)[nH]c3ccccc3c2=O)CC1)N1CCN(c2ccccn2)CC1 (stereo unspecified)
  9% | 22µM* | . | -7%[46.1 µM] | . | -4% | . | ?
COc1ccc(C)cc1NC(=O)Nc1ccc2c(c1)CCC2
  -2% | -4% | . | . | . | 7% | -27% | .
CN(C)S(=O)(=O)c1ccc(NC(=O)COC(=O)CC2CC3CCC2C3)cc1 (stereo unspecified)
  -12% | 1% | . | . | . | -2% | 1% | .
O=S(=O)(c1cccc2nsnc12)N1CCc2ccccc21
  0% | -17% | 9% | 5% | 6.9% | 0% | -33% | 11%
Clc1ccc(CSc2cc3c(nn2)-c2ccccc2CC3)cc1
  2% | 35%[activator] | 20% | 13% | -0.2% | -2% | -6% | -20%
COc1ccnc2c1c(=O)n(Cc1cccc(Cl)c1)c(=O)n2C
  -1% | -1% | . | . | . | -39% | -56% | .
CC(C)OCCCNC(=O)Cn1ncc2c(=O)oc3ccccc3c21
  2% | -20% | 6% | 3% | -1.2% | 0% | -8% | 8%
CCCc1ccc(C(=O)NNc2cccc(C)c2)cc1
  309% | 27% | . | 4µM* | . | -3% | -61% | ?

Whole records, looked up by structure. Order of screens: RE007 growth inh | StopGo reporter | Cruzain inh noDet | MARV entry inh | Cruzain Triton | SARS PLP yeast | NS1 inh | LASV entry inh
Listed for `Nc1nc(-c2cc3ccccc3o2)cs1` : -30% | 38%[activator] | . | -10% | . | -7% | -43% | ?
Listed for `COc1cccc(C(=O)OC2CCN(C)CC2)c1` : 7% | 2% | . | 18%[46.1 µM] | . | 0% | 3% | -15%[46.1 µM]
Listed for `COC(=O)C1=NN[C@H](C(=O)OC)[C@H]1c1ccccc1` : 3% | -26% | 3% | 3% | -0.9% | 14% | 7% | -9%

More structures.
Second line of a record – RE007 growth inh | StopGo reporter | Cruzain inh noDet | MARV entry inh | Cruzain Triton | SARS PLP yeast | NS1 inh | LASV entry inh
COc1cccc(/C=N/Nc2nc3ccccc3n3cnnc23)c1
  14% | -16% | 3% | ? | -1.9% | -4% | 3% | 0%
CC1CCN(C(c2ccc(N(C)C)cc2)c2nnnn2Cc2ccc(F)cc2)CC1 (stereo unspecified)
  3% | -8% | 2% | -12% | -1.2% | -1% | -9% | 6%
COC(=O)c1ccc(C(=O)OC)c(NC2=NS(=O)(=O)c3ccccc32)c1
  2% | -9% | -1% | -4% | -0.4% | 0% | 9% | -17%[14.3 µM]
CCN(CC)C(=O)c1ccc(S(=O)(=O)NCc2cccnc2)cc1
  10% | . | -7% | -18% | 4.4% | 9% | -4% | -4%
CCc1nnc(NS(=O)(=O)c2ccc(N/C=C(\C=O)c3nc4cc(Cl)ccc4o3)cc2)s1
  2% | -21% | . | -7%[46.1 µM] | . | 5% | 7% | 14%[46.1 µM]
CC(C)(C)c1nc(CN2CCCCC2)cc(CN2CCCCC2)c1O
  3% | -20% | -2% | ? | -3.5% | 1% | -6% | ?
O=C(CCC(=O)N/N=C/c1ccccc1O)NCc1ccccc1
  5% | 1% | -12% | ? | -4.4% | 3% | 4% | -16%
O=C1C(NS(=O)(=O)c2cccs2)=C(N2CCN(Cc3ccccc3)CC2)C(=O)c2ccccc21
  -13% | 0% | . | . | . | 1% | 4% | .
COc1ccccc1NS(=O)(=O)c1ccc(C)c(NC(=O)c2ccc(S(=O)(=O)N3CCCCCC3)cc2)c1
  6% | -25% | 32µM* | ? | -1.2% | ? | 20µM* | -13%
S=c1[nH]nc(-c2cc(-c3ccccc3)n[nH]2)n1/N=C/C=C/c1ccco1
  0% | 22% | . | 15%[46.1 µM] | . | -1% | 12% | ?
CCOC(=O)C(=Nc1ccccc1)NO
  5% | -28% | -9% | 10% | -2.3% | 4% | 16% | 0%
COc1ccc(-c2nnc3cccc(Cl)n23)c(OC)c1
  -16% | 36%[activator] | . | ? | . | -2% | 0% | 5%
Cc1ccc(C(=O)OCN2C(=O)c3ccccc3C2=O)c(O)c1
  -5% | 6% | . | . | . | 8% | 21% | .
Fc1ccccc1NC(=S)NCCc1ccc(Cl)cc1
  -11% | 22% | . | ? | . | 0% | -68% | -17%[46.1 µM]
COc1ccc(-n2cc(CN[C@H]3CCCCNC3=O)c(-c3cccc(F)c3)n2)cc1
  3% | -10% | . | . | . | -1% | -2% | .
O=C(CCCOc1ccccc1)Nc1ccc(S(=O)(=O)Nc2ccccn2)cc1
  -4% | 25% | . | 1%[46.1 µM] | . | -1% | -3% | -2%[46.1 µM]
CCCC(c1nnnn1Cc1ccc(OC)cc1)N1CCC(C(N)=O)CC1 (stereo unspecified)
  13% | -9% | 8% | 4%[46.1 µM] | 4.0% | 11% | ? | 15%
CCn1cc(/C=N\NC(=O)c2cc(-c3ccccc3OC)nc3ccccc23)c(C)n1
  0% | -21% | ? | ? | -7.9% | 7% | -24% | 8%
COc1ccc(CCn2c(-c3cccc([N+](=O)[O-])c3)nc3nc4ccccc4nc32)cc1OC
  3% | -10% | ? | -4% | -13% | 6% | 12% | 0%
O=[N+]([O-])c1ccc(Cl)cc1CN1CCCCCC1
  -9% | 5% | . | -10%[46.1 µM] | . | 23% | -1% | 19%[46.1 µM]
COc1ccc(S(=O)(=O)NNC(=O)Nc2ccccc2OC)c(OC)c1
  -8% | -13% | . | 3%[46.1 µM] | . | 4% | 3% | 10%[46.1 µM]
CCOC(=O)N1CCN(S(=O)(=O)c2ccc(F)c(C(=O)Nc3ccc(C)c(Cl)c3)c2)CC1
  -8% | ? | ? | ? | -3.6% | -26% | 27% | ?

Another view of 4 compounds above:
| molecule | RE007 growth inh | StopGo reporter | Cruzain inh noDet | MARV entry inh | Cruzain Triton | SARS PLP yeast | NS1 inh | LASV entry inh |
| --- | --- | --- | --- | --- | --- | --- | --- | --- |
| CCOC(=O)N1CCN(S(=O)(=O)c2ccc(F)c(C(=O)Nc3ccc(C)c(Cl)c3)c2)CC1 | -8% | ? | ? | ? | -3.6% | -26% | 27% | ? |
| COc1ccc(S(=O)(=O)NNC(=O)Nc2ccccc2OC)c(OC)c1 | -8% | -13% | . | 3%[46.1 µM] | . | 4% | 3% | 10%[46.1 µM] |
| CCCC(c1nnnn1Cc1ccc(OC)cc1)N1CCC(C(N)=O)CC1 (stereo unspecified) | 13% | -9% | 8% | 4%[46.1 µM] | 4.0% | 11% | ? | 15% |
| O=[N+]([O-])c1ccc(Cl)cc1CN1CCCCCC1 | -9% | 5% | . | -10%[46.1 µM] | . | 23% | -1% | 19%[46.1 µM] |
